Screening results deposited in PubChem BioAssay by Vanderbilt University.
GIRK2 act: GIRK2 channel activation | P48051 | HEK293-GIRK2 thallium flux, Thallos fluorescence | calls only for hits at 25 µM | hit rate 0.05% among 63,000 | AID 1259325;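 active means among the strongest 0.2% of first-round signals and kept after retests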;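 further: first round at about 10 µM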
Target sequence (P48051 whole entry, looked up): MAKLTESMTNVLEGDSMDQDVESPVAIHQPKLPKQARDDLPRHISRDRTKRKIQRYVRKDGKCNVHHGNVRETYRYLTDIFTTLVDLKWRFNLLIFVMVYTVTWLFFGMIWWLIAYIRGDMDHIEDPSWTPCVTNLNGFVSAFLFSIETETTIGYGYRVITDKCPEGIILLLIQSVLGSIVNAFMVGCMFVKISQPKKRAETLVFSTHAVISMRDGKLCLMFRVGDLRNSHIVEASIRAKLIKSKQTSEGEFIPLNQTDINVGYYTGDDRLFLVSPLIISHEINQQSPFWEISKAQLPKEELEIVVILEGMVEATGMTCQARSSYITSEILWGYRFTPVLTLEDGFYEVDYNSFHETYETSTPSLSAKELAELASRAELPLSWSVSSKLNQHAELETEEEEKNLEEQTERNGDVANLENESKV
Calls only; i = inactive. Not all compounds are listed; the hit share may differ from the screen's.

GIRK2 act | SMILES
i | O=C(NCCN1CCOCC1)Nc1ccccc1F
i | Cc1oc(-c2ccc(OC(C)C)cc2)nc1Cn1nnc(C(=O)NCc2ccc(Cl)cc2)c1N
i | COc1ccc(S(=O)(=O)Nc2ccc3c(c2)N(S(=O)(=O)c2ccc(C)cc2)CCC3)cc1
i | CCOc1ccccc1NC(=O)c1c(O)c2ccccc2n(CC)c1=O
i | Cc1c(-c2nnc(Cc3ccccc3)o2)nnn1-c1ccc(F)cc1
i | COc1ccc(CNC(=O)Cn2cnc3sc(-c4nc(-c5ccccc5)no4)c(C)c3c2=O)cc1
i | O=C(COc1ccccc1)Nc1ccc(SCC(=O)N2CCCC2)nn1
i | COc1ccc2c(c1)c(CC(=O)OCCNc1ncccc1I)c(C)n2C(=O)c1ccc(Cl)cc1
i | CCc1ccc(Oc2cc(N3CCC(C(=O)N4CCN(C(=O)OC(C)(C)C)CC4)CC3)ncn2)cc1
i | O=C(CSC1=NC2(CCCCCC2)Nc2ccccc21)Nc1ccccc1
i | c1ccc(OCCn2c(CN3CCCCC3)nc3ccccc32)cc1
i | COc1ccc(Cn2c(-c3ccccc3F)nc3oc4ccccc4c(=O)c3c2=O)cc1
i | CCOc1c(C)cc(S(=O)(=O)NC(C)Cc2cccs2)cc1C (configuration not stated)
i | O=C(c1cc(=O)c2ccccc2o1)N1CCC2(CC1)OCCCO2
i | CC1=CC(C/C(C)=C/COc2ccc3ccc(=O)oc3c2)OC1=O (configuration not stated)
i | CCn1c(=O)c(C(=O)Nc2cccc(Cl)c2)cc2cccnc21
i | N#Cc1nc(-c2ccc(S(=O)(=O)N3CCCCC3)cc2)oc1NCCCN1CCOCC1
i | CCc1cccc2sc(NC(=O)NCCOC)nc12
i | O=C(Nc1cnoc1)C1c2ccccc2Oc2ccccc21
i | CCOc1ccc(-c2csc(-n3nc(C)cc3NC(=O)c3ccccc3F)n2)cc1
i | CCCCN(C1CCS(=O)(=O)C1)S(=O)(=O)c1ccc(F)cc1 (configuration not stated)
i | Cc1cc(OCC(=O)Nc2ccc(C)c(C)c2)nc(N2CCc3ccccc3C2)n1
i | O=C(NC1CCN(c2ccc(-c3ccccc3Cl)nn2)CC1)c1n[nH]c2c1CCCC2
i | COc1cc(NC(=O)COc2ccc3ccccc3c2)ccc1N1CCCCC1=O
i | O=C1N(Cc2ccccc2)c2ccc(Cl)cc2C12OCCO2
i | COc1ccc(C2CCN(C(=O)c3cccc(OC)c3OC)C2)cc1 (configuration not stated)
i | CC(O)(CCc1ccccc1)CNC(=O)NC1CCCCC1 (configuration not stated)
i | CSc1ccccc1C(=O)NCCc1nc(-c2ccco2)cn1C
i | O=C(Nc1ccc2c(c1)OCO2)N1CCOC2(CCOCC2)C1
i | OC(CNc1cccc(Cl)c1)CN1c2ccccc2Sc2ccccc21 (configuration not stated)
i | COc1ccccc1OCCCN1C(=O)C(O)(CC(C)=O)c2cc(Cl)ccc21 (configuration not stated)
i | COc1ccccc1CCNC(=O)CCCn1cccc1
i | COc1ncc(NS(=O)(=O)c2cccc(F)c2)cn1
i | Cc1ccc(Cn2c(=O)c3ccccc3n(Cc3nc(-c4cccs4)no3)c2=O)cc1
i | COCCN(Cc1ccoc1)C(=O)c1ccccc1Cl
i | CC(C)S(=O)(=O)c1ccc(-c2nnc(NC(=O)NCc3cccs3)o2)cc1
i | CCCS(=O)(=O)N1CCC(c2nnc(C3CC3)s2)CC1
i | O=C(Nc1cccnc1)c1cccc(S(=O)(=O)N2CCCCCC2)c1
i | CC(C)(C)c1ccc(C(=O)N2C3CCC2COC3)cc1
i | Cc1cc(C(=O)N=c2sc3cc4c(cc3n2C)OCCO4)on1

4 entries from above, with each value named.
CC(O)(CCc1ccccc1)CNC(=O)NC1CCCCC1 (configuration not stated)
  GIRK2 act: i

CSc1ccccc1C(=O)NCCc1nc(-c2ccco2)cn1C
  GIRK2 act: i

O=C(Nc1ccc2c(c1)OCO2)N1CCOC2(CCOCC2)C1
  GIRK2 act: i

OC(CNc1cccc(Cl)c1)CN1c2ccccc2Sc2ccccc21 (configuration not stated)
  GIRK2 act: i

An excerpt from above in order of molar mass, largest number first:
GIRK2 act | SMILES
i | COc1ccccc1OCCCN1C(=O)C(O)(CC(C)=O)c2cc(Cl)ccc21 (configuration not stated)
i | O=C(Nc1cccnc1)c1cccc(S(=O)(=O)N2CCCCCC2)c1
i | O=C(Nc1ccc2c(c1)OCO2)N1CCOC2(CCOCC2)C1

(more compounds)
GIRK2 act | SMILES
i | CCSc1nc2c(c(=O)n(Cc3ccc(C)cc3)c(=O)n2C)n1C
i | Cn1c(=O)c2c(nc(N3CCOCC3)n2CC(O)COc2ccc(Cl)cc2Cl)n(C)c1=O (configuration not stated)
i | CC(C)c1ccc(C2c3c(oc4ccccc4c3=O)C(=O)N2C)cc1 (configuration not stated)
i | O=C(Nc1ccc(F)c(Cl)c1)c1csc(Nc2ccccn2)n1
i | CCOC(=O)CCC(=O)N1CCC(COCc2ccc(Cl)cc2)CC1
i | COc1cccc(CN2COc3ccc4c(c3C2)O/C(=C\c2ccc(OC)c(OC)c2OC)C4=O)c1
i | CC1CCCCC1NS(=O)(=O)c1cccc2nsnc12 (configuration not stated)
i | CC(=O)CC1(O)C(=O)N(CCCOc2ccc(C(C)(C)C)cc2)c2ccccc21 (configuration not stated)
i | O=C(c1ccc2c(c1)OCCO2)N(CCn1cccn1)c1nc2ccccc2s1
i | CCOC(=O)c1c(S(=O)(=O)Nc2cccc(C)c2)n[nH]c1C
i | CC(C)N(CC#CCNC(=O)c1cccc(N(C)C)c1)C(C)C
i | CC(C)OC(=O)c1ccc(N/C=C(\C#N)c2nc(-c3cccc([N+](=O)[O-])c3)cs2)cc1
i | CCCC(=O)c1c(O)c(C)c(O)c(CC2=C(O)C(C)(C)C(=O)C(C(C)=O)=C2O)c1O
i | O=C(c1ccsc1)N1CC(c2nc(Cc3ccccc3)no2)C1
i | O=C(CSC1CCCC1)N1CCC(Cn2ccnc2)CC1
i | COCCCn1c(C(=O)Nc2cccc(Cl)c2)cc2c(=O)n3ccccc3nc21
i | CCOc1ccc(NC(=O)Nc2ccc3nc(C)n(-c4ccc(C)cc4)c(=O)c3c2)cc1
i | O=C(NCCOc1ccccc1)NCC(O)c1cccs1 (configuration not stated)
i | Cc1cc(C)c(S(=O)(=O)N2CCCCC2)cc1N(C)S(=O)(=O)c1cccc([N+](=O)[O-])c1
i | COc1ccc(CCNS(=O)(=O)c2c(Cl)cccc2Cl)cc1OC
i | COC(=O)c1ccccc1NC(=O)Cn1c(=O)nc(-c2ccccc2)c2ccccc21
i | N#Cc1ccc(Cl)cc1NC(=O)C(=O)NCC(c1cccs1)N1CCOCC1 (configuration not stated)
i | O=C(c1ccco1)N1CCC(CSC2=NCCS2)CC1
i | CCCc1cnc2c(c1SCCN1CCOCC1)c(=O)n(C)c(=O)n2C
i | O=C(Cc1cccs1)N1CCc2cc(S(=O)(=O)N3CCOCC3)ccc21
i | COc1cccc(C(=O)NCCCS(=O)(=O)N2CCN(c3ccccc3)CC2)c1OC
i | COc1ccc(OC)c(NC(=O)CCCSc2ccc(NC(C)=O)nn2)c1
i | Cc1ccc(C)c(S(=O)(=O)N2CCCOC2CNC(=O)C(=O)NCCN2CCOCC2)c1 (configuration not stated)
i | O=C(NCCC(O)c1ccc2c(c1)OCO2)NCc1ccc(F)cc1 (configuration not stated)
i | O=S(=O)(Cc1cccc(F)c1)NCC1(CO)CC1
i | CC1CCCN(c2nccnc2SCC(=O)Nc2ccc(F)cc2)C1 (configuration not stated)
i | Cc1noc(C)c1S(=O)(=O)N1CCC2(CC(=O)c3ccccc3O2)C1 (configuration not stated)
i | CC(=O)Nc1c2c(nn1CC(=O)NCCc1ccccc1)CSC2
i | O=C(NCCC1=CCCCC1)C1COCC(=O)N1Cc1cccs1 (configuration not stated)
i | COc1ccc(CCNC(=O)NCc2sc(-c3cccs3)nc2C)cc1
i | CCC(C)CC(C)CCCCCCCCC(=O)N[C@H]1C[C@@H](O)[C@@H](O)NC(=O)[C@@H]2[C@@H](O)[C@@H](C)CN2C(=O)[C@H]([C@H](O)CC(N)=O)NC(=O)[C@H]([C@H](O)[C@@H](O)c2ccc(O)cc2)NC(=O)[C@@H]2C[C@@H](O)CN2C(=O)[C@H]([C@@H](C)O)NC1=O (some centres not stated)
i | CCOc1ccc(S(=O)(=O)NCCNC(=O)c2ccc(NC(C)=O)cc2)cc1
i | Cc1ccc(S(=O)(=O)Cc2ccc(-c3nc(-c4ccc(C(F)(F)F)cc4)no3)o2)cc1
i | Cn1nc(N2CCC(C(=O)NCc3ccc(Cl)cc3Cl)CC2)ccc1=O
i | CC(C)(C)c1ccc(S(=O)(=O)N2C3CCC2COC3)cc1
i | COc1ccc(C2c3c(oc4cc(C)c(Cl)cc4c3=O)C(=O)N2c2cc(C)on2)cc1 (configuration not stated)
i | O=C(Cn1cnc2ccccc21)NCCc1ccncc1
i | COc1ccc(CNC(=O)c2c(O)c3sccc3[nH]c2=O)cc1
i | COc1ccccc1C(=O)N1CCN(c2oc(-c3ccccc3)nc2C#N)CC1
i | O=S(=O)(/C=C/c1ccccc1)N1C2CCC1COC2
i | Cc1nc(-c2cccs2)sc1CNC(=O)c1cncc(Br)c1
i | Cc1oncc1C(=O)NCC1CCN(c2ncccn2)CC1
i | COc1ccccc1-c1nc(CSc2nc3c(c(=O)[nH]2)CN(Cc2ccc(F)cc2)CC3)c(C)o1
i | CC(C(=O)Nc1cc(Cl)ccc1C#N)n1nc(-c2cccs2)ccc1=O (configuration not stated)
i | O=C(CCS(=O)(=O)Cc1ccccc1)Nc1ccc(-c2nc3ccccc3o2)cc1
i | COc1cc(/C=C/[N+](=O)[O-])c2c(c1)CCCO2
i | N#Cc1ccccc1NC(=O)C(=O)NCC(c1cccs1)N1CCOCC1 (configuration not stated)
i | O=S(=O)(NCC1(c2ccccc2)CCOCC1)c1ccc(OC(F)(F)F)cc1
i | COc1ccc(-c2ccc(S(=O)(=O)NC(C(=O)O)C(C)C)cc2)cc1 (configuration not stated)
i | O[C@]12CO[C@H](c3ccc4c(c3)OCO4)[C@H]1CO[C@@H]2c1ccc2c(c1)OCO2
i | CC(O)(CNC(=O)C(=O)NCCC1=CCCCC1)c1ccc2c(c1)OCO2 (configuration not stated)
i | O=C(/C=C/c1cccs1)N1CCC(Oc2ncccc2Br)CC1
i | Cc1ccc(-c2noc(-c3cccn(CC(=O)Nc4ccc(C)cc4C)c3=O)n2)cc1
i | O=C(NCC#CCN1CCCC1)NCc1cccc2ccccc12
i | CS(=O)(=O)N1CCN(CCNC(=O)CSC2CCCC2)CC1

The list continues.
GIRK2 act | SMILES
i | COc1cccc(NC(=O)N2CC(Oc3nc4ccccc4s3)C2)c1OC
i | CSc1ccccc1NC(=O)c1ccc(=O)n(C)n1
i | COc1ccc(C2C(C(=O)Nc3ccccc3)C(C)Nc3ncnn32)cc1OC (configuration not stated)
i | CC/C=C/C[C@H](O)/C=C/[C@H]1[C@H](O)CC(=O)[C@@H]1C/C=C\CCCC(=O)O
i | Cc1nccn1-c1ccc(C(=O)Nc2ccc(OC(F)(F)F)cc2)nn1
i | CCc1ccc(N2C(=O)C3N=NN(CC(=O)Nc4ccc(C(C)C)cc4)C3C2=O)cc1 (configuration not stated)
i | CS(=O)(=O)c1ccc2nc(NC(=O)CNC(=O)c3c[nH]c4ccccc34)sc2c1
i | O=C(NCC1CCN(C(=O)c2ccoc2)CC1)Nc1cccs1
i | COc1ccc(-n2nc(C(=O)NCc3ccc(Cl)cc3)c(=O)cc2OC)cc1
i | Cc1cc(C)n(-c2ccnc(N3CCN(c4ccccc4)CC3)n2)n1
i | Cc1noc(NS(=O)(=O)c2ccc(NC(=O)CN3C(=O)c4ccccc4S3(=O)=O)cc2)c1C
i | COc1ccc(OC)c(CCNC(=O)CC2=NS(=O)(=O)c3ccccc3N2)c1
i | COc1ccccc1C(O)Cn1cc(C(=O)Nc2ccc(F)cc2Br)nn1 (configuration not stated)
i | COCCNC(=O)N1CCC2(CC1)OCCCO2
i | COc1cccc(S(=O)(=O)NCc2ccc(C(=O)Nc3cccc(Cl)c3)cc2)c1
i | COc1cc(NC(=O)NCCCn2ncccc2=O)cc(OC)c1
i | Cc1ccc(/C=C/S(=O)(=O)N2CC(c3nc(-c4ncccn4)no3)C2)cc1
i | CCc1ccc(S(=O)(=O)c2nnn3c2nc(N2CCN(C)CC2)c2cc(Cl)ccc23)cc1
i | O=C(NCC#CCOc1ccc2c(c1)OCO2)C1CC1
i | O=C(CCc1c[nH]c2ccccc12)OCC(=O)c1ccccc1

Grouped by structure: the compounds so far with an NH in an aromatic ring.
GIRK2 act | SMILES
i | O=C(NC1CCN(c2ccc(-c3ccccc3Cl)nn2)CC1)c1n[nH]c2c1CCCC2
i | CCOC(=O)c1c(S(=O)(=O)Nc2cccc(C)c2)n[nH]c1C
i | COc1ccc(CNC(=O)c2c(O)c3sccc3[nH]c2=O)cc1
i | COc1ccccc1-c1nc(CSc2nc3c(c(=O)[nH]2)CN(Cc2ccc(F)cc2)CC3)c(C)o1
i | CS(=O)(=O)c1ccc2nc(NC(=O)CNC(=O)c3c[nH]c4ccccc34)sc2c1
i | O=C(CCc1c[nH]c2ccccc12)OCC(=O)c1ccccc1

Other results follow.
GIRK2 act | SMILES
i | COC(=O)c1ccc(-c2csc(NC(=O)NCc3cccs3)n2)cc1
i | Cc1cc(C)n(-c2nc(CCNC(=O)Nc3cccs3)cs2)n1
i | COc1ccccc1/C=C/C(=O)c1cc(Br)ccc1O
i | Cn1nc(N2CCC(C(=O)Nc3ccccc3Cl)CC2)ccc1=O
i | Cc1ccc(CNC(=O)Cn2c(C)cc(C)c(S(=O)(=O)c3ccc(C)c(C)c3)c2=O)cc1
i | Cc1ccc2[nH]c3c(=O)n(CCC(=O)NCc4c(C)nn(C)c4C)cnc3c2c1
i | COc1ccc(S(=O)(=O)N2CCN=C2SCc2ccccc2F)cc1
i | COc1ccc(Cn2c(C)cn3c4c(=O)n(Cc5ccc(F)cc5)c(=O)n(C)c4nc23)cc1
i | O=C(CCc1ccc(-c2ccccc2)o1)Nc1ccccc1[N+](=O)[O-]
